Calb FLC: affects C. albicans growth with fluconazole | C. albicans CaCi-2 (fluconazole-resistant clinical isolate) + fluconazole, Alamar Blue growth, 48 h | growth inhibition, % (test concentration not listed) | hit rate 0.57% among 300,000;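 active means most replicates above 75%; inconclusive means exactly half above 75%; inactive means most below 75%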;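 further: all wells also contain fluconazole at 8 µg/ml as a sub-toxic cotreatment; 0% = median of DMSO wells and 100% = median of geldanamycin control wells; wells of about 8 µL received 7.5 nL stock; the first replicate is given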
A1 inh: inhibitors of the anti-apoptotic protein A1, read as caspase activation. MEF A1-2A-BIM cells, Caspase-Glo 3/7 luminescence, 3 h; percent of clofoctol response, vehicle zero. caspase activation, % (no concentration beside the values). hit rate 0.066% among 330,000. AID 2462;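 active means over half of replicate activation scores above 10%, or exactly half above 10 with the replicate mean above 10; inconclusive means replicate mean below 10 yet half the replicates above 10; inactive means over half of replicates below 10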;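 further: wells of about 30 µL received 50 nL stock; many hits fall short of the cut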
Beta2AR agonist: agonists of human beta-2 adrenergic receptor inducing internalization | P07550 | response, % (test concentration not listed) | hit rate 0.43% among 340,000 | Am2.2-beta2AR cells, FAP receptor internalization, flow cytometry; reference of the scale not given here;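 active means response above a set limit, near 3 SD of response in nonfluorescent compounds, cut at about 42% in these data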;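 further: stock transfer was 100 nL into about 11 µL; a reference agonist was the positive control; negative values mostly stem from fluorescent compounds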
Target sequence (P07550 whole entry, looked up): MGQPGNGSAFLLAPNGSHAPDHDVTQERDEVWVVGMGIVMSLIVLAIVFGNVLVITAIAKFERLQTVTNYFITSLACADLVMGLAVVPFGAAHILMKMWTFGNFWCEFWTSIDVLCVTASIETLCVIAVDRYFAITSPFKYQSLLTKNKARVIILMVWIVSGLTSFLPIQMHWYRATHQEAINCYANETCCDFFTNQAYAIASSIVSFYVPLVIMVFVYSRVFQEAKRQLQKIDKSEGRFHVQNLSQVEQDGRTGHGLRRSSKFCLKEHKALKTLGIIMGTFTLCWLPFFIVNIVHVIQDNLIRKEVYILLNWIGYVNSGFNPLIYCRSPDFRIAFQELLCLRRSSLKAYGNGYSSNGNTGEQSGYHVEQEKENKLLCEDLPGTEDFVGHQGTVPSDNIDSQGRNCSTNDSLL
LANA-H2A inh: blocks KSHV LANA binding to histone H2A/H2B | Q9QR71 | cell-free LANA-H2A/H2B peptide, fluorescence polarization | inhibition, % (no concentration beside the values) | hit rate 0.6% among 320,000; in the data active means inhibition mostly above about 10%, no sharp cut-off; inactive means mostly below about 6.7%;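 further: stock transfer was 7.5 nL into about 10 µL; 0% = median of vehicle wells and 100% = median of positive control wells; one replicate is shown; the record names a cut of 25% in any replicate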
T cruzi repl: T. cruzi replication inhibition | T. cruzi beta-gal in NIH3T3, luminescence, 90 h | AID 1885 | hit rate 1.4% among 300,000 | inhibition, % (no concentration beside the values);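 active means mean inhibition across valid replicates above about 55%, limit read from the data; inconclusive means mean below that limit but half or more replicates reach it; inactive means mean below it, under half of replicates reach it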;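 further: signal also drops with host cell toxicity which is not excluded here; 0% = plate median of DMSO wells and 100% = zero luminescence signal; higher percent means less beta-gal luminescence so fewer parasites; stock transfer was 50 nL into about 50 µL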
RanGTP-Imp inh: disruptors of Ran-importin-beta complex formation – biochemical, FRET, CFP-Ran, YFP-importin-beta, homogeneous, primary screen. cell-free CFP-Ran/YFP-importin-beta FRET ratio. inhibition, % (test concentration not listed). hit rate 1.1% among 300,000. AID 2216;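 active means most replicates above 15%; inconclusive means exactly half above 15%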;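 further: 0% = DMSO wells and 100% = Ran loaded with GDP instead of GTP; wells of about 40 µL received 100 nL stock; the first replicate is given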
Beta apoptosis: blocks beta cell apoptosis; INS-1E cytokine-induced death, ATP luminescence, 48 h; percent of positive-control rescue, neutral wells zero; protection from apoptosis, % (concentration not given with the values); hit rate 0.8% among 300,000; AID 435005;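 active means all replicates at 75% or more, or half of them and the mean; inconclusive means half reach 75% but not the mean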;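 further: 0% = cytokine-treated negative control wells and 100% = positive control rescue; higher means more ATP so stronger rescue from cytokine killing; wells of about 40 µL received 100 nL stock; the first replicate is given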
UCH37 DUB inh: blocks the human deubiquitinase UCH37. Q9Y5K5. purified proteasome/UCH37, Ub-AMC cleavage fluorescence. inhibition, % (test concentration not listed). hit rate 0.33% among 330,000. AID 588478;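 active means mean of two replicates above 20%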;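 further: 0% = compound-free wells with enzyme and 100% = wells lacking proteasome; stock transfer was 100 nL into about 20 µL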
Target sequence (Q9Y5K5 whole entry, looked up): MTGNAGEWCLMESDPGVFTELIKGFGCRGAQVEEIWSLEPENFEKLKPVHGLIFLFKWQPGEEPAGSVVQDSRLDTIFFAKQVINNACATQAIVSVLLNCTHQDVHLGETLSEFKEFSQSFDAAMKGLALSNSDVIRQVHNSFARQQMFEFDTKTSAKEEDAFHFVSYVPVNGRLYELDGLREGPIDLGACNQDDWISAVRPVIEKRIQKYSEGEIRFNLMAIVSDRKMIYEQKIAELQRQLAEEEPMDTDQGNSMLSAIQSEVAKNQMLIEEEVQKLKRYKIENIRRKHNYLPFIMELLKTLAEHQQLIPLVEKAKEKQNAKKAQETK
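system = Proteasome-associated human UCH37 deubiquitinase | amount = 0.15 nM proteasome as dispensed | medium = pH 7.4 Tris-HCl (50 mM) with ovalbumin, ATP-MgCl2, DTT | incubation = 30 min preincubation with enzyme, 25 min cleavage at room temperature | detection = AMC fluorescence 355/460 nm | read-out basis = percent inhibition | controls = no-proteasome and no-compound wells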
An asterisk follows results filed as active; i = inactive; ? = inconclusive; / = no result given.

SMILES	Calb FLC	A1 inh	Beta2AR agonist	LANA-H2A inh	T cruzi repl	RanGTP-Imp inh	Beta apoptosis	UCH37 DUB inh
Cc1ccc(/C=N\NC(=O)c2csnn2)cc1	-3	-11	8	-7.5	-24	-0.3	-5	/
NC(=O)CC(NC(=O)c1ccccc1)c1ccc(NCc2ccccn2)c([N+](=O)[O-])c1 (stereo unspecified)	-2	-0.4	-3	-0.4	-32	5.8	2	1.6
O=Cc1c(NCCc2ccc(F)cc2)c2ccccc2[nH]c1=O	7	0.5	2	0.7	-9	-1.7	-10	3.0
COc1ccc(N(CC(=O)Nc2cc(Cl)ccc2C)S(=O)(=O)c2c(C)n[nH]c2C)cc1	15	0.6	-17	-5.0	-4	1.9	13	2.5
C=CCNC(=S)/N=c1/ccccn1C	15	0.0	-3	-0.5	-17	-0.3	0	/
CS(=O)(=O)N(Cc1ccc(C(=O)NCCSCc2ccco2)cc1)c1ccccc1	-15	-0.3	4	-2.2	-2	3.5	5	-0.8
C=CCNc1nnc(Cc2ccc(F)cc2)c(=O)[nH]1	40	-0.8	4	2.1	-7	-1.2	-5	4.3
CC(C)c1nc2cc(C(=O)NC(C)c3cnn(C)c3)ccc2o1 (stereo unspecified)	5	0.0	-7	-7.1	-9	1.0	-3	1.1
Cc1c(NC(=O)C(C)Sc2nc(N)cc(=O)[nH]2)c(=O)n(-c2ccccc2)n1C (stereo unspecified)	/	0.0	1	-2.2	/	/	-10	2.2
Cn1c(Cn2c(=O)sc3ccccc32)nnc1SCC(=O)NCc1ccc2c(c1)OCO2	7	-0.6	-13	-2.4	-1	5.7	-3	1.9
COc1ccc(CN2CCC(=O)N(CCO)CC2)cc1OC	-1	0.0	-4	5.0	-34	-2.2	-9	3.8
c1ccc(C2COC(c3cccs3)=N2)cc1 (stereo unspecified)	-22	0.9	5	1.4	-7	4.2	-3	-0.5
CO/N=C/CC(=O)c1ccc([N+](=O)[O-])c(CS(=O)(=O)c2ccc(Cl)cc2)c1	-2	-0.5	3	-3.8	12	-4.9	1	/
O=C(c1cnc(N2CCN(c3ncccn3)CC2)c2ccccc12)N1CCN(c2ccccn2)CC1	-36	0.1	6	4.4	-4	1.0	5	-7.2
CS(=O)(=O)Cc1ccc(C(=O)NC2CCSc3ccccc32)cc1 (stereo unspecified)	-2	0.3	2	3.4	-8	-1.3	-5	3.5
Cn1c(=O)c2c(ncn2CC(=O)N/N=C/C(Br)=C/c2ccccc2)n(C)c1=O	9	-0.1	-4	-1.4	7	3.4	-6	/
CCN(Cc1cc(=O)[nH]c2ccccc12)C(=O)c1ccc(C)cc1	8	-0.2	-6	-0.7	8	-1.8	-3	-0.5
COc1cccc(CN(C)C(=O)C(CCSC)NS(=O)(=O)c2ccc3c(c2)OCCO3)c1OC (stereo unspecified)	1	-0.1	8	-0.5	-11	5.0	/	4.5
CCOc1ccc(-n2c(=O)c3sccc3n(CC(=O)NCC3CCCO3)c2=O)cc1 (stereo unspecified)	-3	-0.6	2	-1.5	2	0.5	-6	1.6
O=C(O)/C=C/C(=O)NNC(=O)c1cc(-c2ccccc2)n[nH]1	-7	?	-7	0.4	-5	5.2	0	5.1
COc1ccc2cc3cc(C(=O)NCCCN4CCC(C)CC4)oc3nc2c1	9	-0.3	14	-1.2	-24	0.4	6	i
CC1(C)C(=O)OC(c2ccco2)C(C)(C)C1=O (stereo unspecified)	-3	0.8	3	2.6	2	0.9	-9	3.0
CCOc1ccc(S(=O)(=O)N2CCN(Cc3ccc4c(c3)OCO4)CC2)cc1OCC	-24	-1.0	-6	-4.3	-2	-8.9	-5	/
CC1=C(/C=C/C(=O)O)C(C)(C)CCC1	14	-0.3	-4	1.8	4	-0.1	-4	6.1
CC1CCN(S(=O)(=O)c2ccccc2[N+](=O)[O-])CC1	-5	0.0	3	0.1	-22	-2.1	-3	1.0
O=S(=O)(c1ccc(N2CC=C(c3ccccc3)CC2)nc1)N1CCCC1	-1	1.0	-7	1.5	24	-7.8	4	2.0
O=Nc1ccc(NOC(=O)c2ccccc2)cc1	-6	-0.3	0	-2.5	10	-0.1	-6	8.4
Cc1nc2ccc(Cl)cc2c(-c2ccccc2Cl)c1CC(=O)O	1	0.3	46*	0.4	-4	2.0	-4	3.9
O=C(Cn1[nH]c(=O)c2ccccc2c1=O)Nc1cccc(S(=O)(=O)N2CCCCCC2)c1	-3	-0.6	0	1.1	-3	-2.4	/	-0.4
COc1cccc(C2=CC(c3ccccc3)n3ncnc3N2)c1 (stereo unspecified)	24	-0.3	/	0.8	16	-3.5	3	/
COc1ccc(CCNC(=O)C(CC(C)C)NC(N)=O)cc1 (stereo unspecified)	-9	0.8	5	5.8	7	?	0	-0.6
COc1cccc(-c2cc(C(=O)Nc3cc(C)nn3-c3ccccc3)no2)c1	2	-0.3	2	-4.4	-6	4.7	9	-6.3
Cc1sc2nc(SCC(=O)C(C)(C)C)n(Cc3ccco3)c(=O)c2c1C	-1	-1.1	1	-3.1	21	-1.5	9	2.8
COc1ccc(C(=O)N2CCCN(C)CC2)cc1S(=O)(=O)N1CCCc2ccccc21	16	0.4	2	3.5	13	-3.2	-2	0.2
Cc1ccc(C(=O)OCC(=O)NNC(=O)c2ccccc2)c(O)c1	2	-0.4	1	5.5	-11	1.8	0	/
O=C(N/N=C/c1cccc2ccccc12)c1cccc(F)c1	1	0.1	18	-7.5	-5	-1.2	-1	/
CCN(CC)C(=O)Cn1cc(SCC(=O)NCc2ccco2)c2ccccc21	13	0.7	-2	5.8	3	2.0	-5	4.3
CCCn1c(N)c(N(CCOC)C(=O)CCC2CCCCC2)c(=O)[nH]c1=O	/	1.0	10	-2.6	/	/	-6	4.1
O=C(N/N=C/c1ccccn1)c1cccs1	-7	-3.1	-7	2.7	-10	2.0	4	/
CCOc1ccc(OCC)c(NC(=O)C2CCN(S(=O)(=O)c3cccnc3)CC2)c1	5	0.8	1	1.7	6	0.1	2	0.8
COC(C(=O)N/N=C/c1ccc(OCC(=O)N2CCOCC2)cc1)c1ccccc1 (stereo unspecified)	4	1.2	-3	-3.5	-15	-0.3	10	/
O=C(CSC1=NCCS1)Nc1cccc(F)c1	5	-0.4	2	2.3	-25	1.0	1	4.8
Cc1ccc(CNC(=O)[C@H](C)NC(=O)C2CCN(C(=O)[C@@H](N)CC(C)C)CC2)cc1	0	0.3	-1	3.7	-10	3.6	-5	0.4
O=C(O)c1c(F)c(F)c(F)c(F)c1-c1ccc(Cl)cc1	-9	0.1	-1	4.1	-9	-2.6	-6	2.2
Cn1c(CNC(=O)C2CCCCC2)cc2cc(Cl)ccc21	-45	0.2	-5	-5.5	2	-3.2	-6	2.8
O=C(N/N=C/c1cc([N+](=O)[O-])ccc1O)C1CC1	23	-1.4	1	-5.6	5	0.8	-2	/
N/C(=N\OC(=O)c1cccc(Br)c1)c1ccc([N+](=O)[O-])cc1	5	-0.5	2	0.2	11	-0.7	-6	/
C/C=C/C(=O)Nc1nnc(C(C)C)s1	1	0.8	1	-3.3	-15	-3.7	-4	6.1
O=C(OCC(=O)N1CCCc2ccccc21)C1CCN(S(=O)(=O)c2cccs2)CC1	-13	1.0	-3	0.2	-5	-1.1	4	2.5
O=C(Oc1ccc2cc(Br)ccc2c1)N1CCCCCC1	0	0.7	/	-11	40	?	24	/
Going on with the list.
SMILES	Calb FLC	A1 inh	Beta2AR agonist	LANA-H2A inh	T cruzi repl	RanGTP-Imp inh	Beta apoptosis	UCH37 DUB inh
CCOc1ccc(OCC)c(S(=O)(=O)N2CCCCC2C)c1 (stereo unspecified)	0	0.4	-1	-1.5	-4	-2.3	-5	3.6
C[C@H](NS(=O)(=O)c1ccccc1F)C(=O)OCC(=O)N1CCc2ccccc21	-5	0.1	5	1.7	-19	0.6	-10	3.7
COC(=O)c1ccc(Nc2cc(C)nc3ncnn23)cc1	22	-0.1	2	4.1	0	1.7	-8	2.7
CCOc1ccc(/C=C2\SC(=S)N(C)C2=O)cc1OC	-5	-0.9	-10	-2.8	-8	-2.3	2	4.7
Cc1ccc(S(=O)(=O)N2CCN(C(=O)c3ccc(N4CCCCC4)c([N+](=O)[O-])c3)CC2)cc1	-3	0.3	0	-0.4	6	-1.1	3	6.0
CN(C)S(=O)(=O)c1cc(NC(=O)COC(=O)Cc2ccc(Br)cc2)ccc1Cl	-1	-1.0	-3	-6.7	-26	0.3	-6	4.2
Cc1ccccc1-c1nnc(-c2ccccc2C)o1	2	-3.5	-10	-2.7	-7	2.8	2	-0.4
CCOCCCNC(=O)c1ccc(NC(=O)C2CCCO2)cc1 (stereo unspecified)	/	0.3	4	0.7	-10	1.0	6	1.8
CCn1c(-c2ccccn2)nc2cc(S(=O)(=O)N(C)C)ccc21	4	-0.9	-3	1.4	4	?	-6	2.6
O=C(CNS(=O)(=O)c1ccc(Br)cc1)NCc1ccncc1	1	-0.2	-1	-8.5	-9	-3.1	0	5.2

Reformatted with values under each structure: entries from further up.
Below each SMILES – Calb FLC	A1 inh	Beta2AR agonist	LANA-H2A inh	T cruzi repl	RanGTP-Imp inh	Beta apoptosis	UCH37 DUB inh
> Cc1ccc(S(=O)(=O)N2CCN(C(=O)c3ccc(N4CCCCC4)c([N+](=O)[O-])c3)CC2)cc1
    -3	0.3	0	-0.4	6	-1.1	3	6.0
> Cc1ccccc1-c1nnc(-c2ccccc2C)o1
    2	-3.5	-10	-2.7	-7	2.8	2	-0.4

New compounds follow.
SMILES	Calb FLC	A1 inh	Beta2AR agonist	LANA-H2A inh	T cruzi repl	RanGTP-Imp inh	Beta apoptosis	UCH37 DUB inh
Cn1cccc1Cc1nnc(SCC(=O)N2CCOCC2)n1CCc1ccccc1	5	-0.1	3	-8.0	6	-6.3	-5	1.4
Cc1ccc(CNC(=O)C(=O)NCCC2=CCCCC2)cc1	-16	0.2	6	3.7	15	-2.1	0	6.0
Cn1c(N)c(C(=O)COC(=O)c2cc(S(=O)(=O)N3CCCCC3)ccc2Cl)c(=O)n(C)c1=O	?	-0.3	3	-0.3	-3	0.8	1	0.1
Cc1cccc(C(=O)NCC(=O)N(C)Cc2nc3ccccc3c(=O)[nH]2)c1	/	0.1	-1	-0.3	/	/	-4	1.7
O=C(NCCN1CCN(c2ccc([N+](=O)[O-])cc2)CC1)NCc1ccccc1	-5	0.3	0	1.2	53	-1.1	5	7.2
COCCCNC(=O)C1CCC(CNS(=O)(=O)c2ccc(C)cc2)CC1 (stereo unspecified)	2	-1.3	/	-0.8	0	0.3	-3	0.8
Cc1cccc(Cn2c(CN3CCN(Cc4ccccc4)CC3)nc3c2c(=O)[nH]c(=O)n3C)c1	-3	-0.1	1	-3.6	4	-1.3	6	4.1
COc1cc(NC(=O)C2CCCCC2)c(OC)cc1NC(=O)c1ccco1	-11	0.8	-13	4.1	4	-1.3	7	0.9
Cc1ccc(-n2ncc(-c3nn[nH]n3)c2N)cc1	2	-0.3	-18	1.8	-6	3.6	-2	6.5
CCOC(=O)c1ccc(NC(=S)NC(=O)C2CCCC2)cc1	-24	0.7	8	0.5	12	7.1	-9	4.3
O=[N+]([O-])c1cccc(C2(O)COc3ccccc3O2)c1 (stereo unspecified)	-15	-0.2	7	1.7	-7	2.1	-6	0.6

Source: PubChem BioAssay (several laboratories)
